gsp antag – antagonizes gsp, the McCune-Albright syndrome mutation. gsp-mutant cells, cAMP HTRF, 30 min; control for the full effect not named in the record. Potency, µM (doses to about 76.9 µM), without a hit: at the highest dose activity change, negative = inhibition, hits mostly inhibitors. 340,000 compounds, 0.4% hits; active = falling curve of any shape with a large fitted effect; inconclusive = falling curve, mostly with a smaller effect; inactive = flat or rising curve; cell line not stated here;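 also: intracellular cAMP measured with PDE inhibitor Ro 20-1724 present during compound exposure; potency is read from the fitted curve at half-maximal effect; % is scaled to controls: 0 for no effect and ±100 for the full control effect; nearly all actives have a fitted effect of over 65% in size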
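Measurement of cellular cAMP by homogeneous time-resolved fluorescence following a 30 min compound exposure at 37C. The PDE inhibitor […] was present throughout; the assay buffer was DPBS with 0.05% BSA and 0.005% Tween 20.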
ClpP mod – qHTS Assay for Activators of ClpP. Potency, µM (doses to about 57.5 µM), without a hit: top-dose activity change, negative = active. 340,000 compounds, 1.9% hits. purified B. subtilis ClpP, FRET peptide cleavage, 20 min; active = well fitted falling curve with a large enough effect; inconclusive = small, poorly fitted or top-dose-only effect; inactive = no such curve, though single readings can be large or run the other way; also: potency is read from the fitted curve at half-maximal effect; the source files actives as falling curves though it sought activators and does not explain the sign; nearly all actives have a fitted effect of over 65% in size; many hits overshoot -100%
Target sequence (P80244 whole entry, looked up): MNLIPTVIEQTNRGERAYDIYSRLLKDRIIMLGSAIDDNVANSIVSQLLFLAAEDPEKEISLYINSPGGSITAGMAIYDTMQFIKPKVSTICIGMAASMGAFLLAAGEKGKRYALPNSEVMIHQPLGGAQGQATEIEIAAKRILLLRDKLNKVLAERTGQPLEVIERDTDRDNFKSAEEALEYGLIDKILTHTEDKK
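Purified B. subtilis ClpP, 10 microg/mL final in Tris/HCl pH8 with KCl, BSA, glycerol and Tween-20, cleaved an Abz/nitrotyrosine-quenched decapeptide. Fluorescence (ex 320, em 430) was read at 0 and 20 min at room temperature. Delta was normalized to 5.8 microM ADEP and DMSO/no-enzyme controls.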
TRPML1 inh – inhibitors of human TRPML1 channel; Q9GZU1; TRPML1-inducible cells, Ca2+ dye fluorescence, FDSS; hits give low values; inhibition of EC80 agonist-evoked calcium signal; activity change, negative = inhibition, % (test concentration not listed); 390,000 compounds, 0.02% hits; in the data active means activity change below about -50%; inconclusive means about -30% to -50%; inactive means above about -30%;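 also: stimulus is agonist 54-4 at its EC80 concentration; % is scaled to controls: 0 for no effect and ±100 for the full control effect; compound concentration not given in the record; the text of the record puts the active cut at -80%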
Target sequence (Q9GZU1 whole entry, looked up): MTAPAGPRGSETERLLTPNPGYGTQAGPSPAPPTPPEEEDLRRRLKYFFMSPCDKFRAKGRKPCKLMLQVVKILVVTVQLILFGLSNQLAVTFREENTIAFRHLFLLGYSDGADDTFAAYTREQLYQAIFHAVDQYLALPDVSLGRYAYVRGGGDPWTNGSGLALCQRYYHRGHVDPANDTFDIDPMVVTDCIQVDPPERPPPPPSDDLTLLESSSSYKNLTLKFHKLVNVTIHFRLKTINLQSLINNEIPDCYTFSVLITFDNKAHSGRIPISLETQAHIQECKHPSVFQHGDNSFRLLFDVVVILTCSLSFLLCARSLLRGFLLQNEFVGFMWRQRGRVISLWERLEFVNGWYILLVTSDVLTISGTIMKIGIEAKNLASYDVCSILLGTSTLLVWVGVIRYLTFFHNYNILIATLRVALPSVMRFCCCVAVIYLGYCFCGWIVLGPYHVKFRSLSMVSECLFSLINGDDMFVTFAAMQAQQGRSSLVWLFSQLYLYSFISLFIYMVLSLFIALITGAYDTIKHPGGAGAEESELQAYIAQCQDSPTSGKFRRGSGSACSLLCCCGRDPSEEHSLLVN
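Tet-induced TRPML1-DL cells loaded with Ca8 no-wash calcium dye were read kinetically on FDSS. Compound addition was followed by EC80 agonist 54-4 (4 uM final); inhibition was read over 110 s.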
TRPML1 ag – human mucolipin-1 channel agonism; Q9GZU1; TRPML1-expressing cells, Ca2+ dye fluorescence, FDSS; host cell line not named in the record; reference of the full effect not given here; activation, % (concentration not given with the values); 410,000 compounds, 0.12% hits; AID 624414; in the data active = activation above about 50%; inconclusive = about 30% to 50%; inactive = below about 30%; also: 0% is about no effect; the text of the record puts the active cut at 80%
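Cells: TRPML1-DL, 1X Tet inducer, ~16 h at 37 degrees C/5% CO2. Dye: ABD Ca8 no-wash + quencher, 45-90 min RT. Read: 10 s baseline, compound add, 110 s agonist phase; 54-4 EC80 (4uM final), 110 s antagonist phase.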
Menin MLL FP FL – menin-MLL binding inhibition, fluorescein peptide | Fluorescence polarization, fluorescein-MLL peptide displacement from menin | FP activity change, % at 61.4 µM | 290,000 tested, under 10 active; inconclusive = falling polarisation curve, or a change in total fluorescence; inactive = total fluorescence flat and polarisation flat or rising; no compound was filed as active; the % refers to the polarisation; negative = inhibition;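 also: % of control where 0% means no effect; inhibitors lower the polarisation; unlabelled MLL peptide was the positive control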
gsp agonist – activates gsp, the McCune-Albright syndrome mutation | Potency, µM (doses to about 76.9 µM), inactives show at the highest dose activation (cAMP increase), hits mostly activators | gsp mutant cells, cAMP HTRF, 30 min; control for the full effect not named in the record | 340,000 compounds, 0.13% hits; active = well fitted activation curve with a large enough effect; inconclusive = small, poorly fitted or top-dose-only effect, or another doubt; inactive = no such curve, though single readings can be large or run the other way; cell line not stated here;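 also: phosphodiesterase inhibitor Ro 20-1724 added with compounds to block cAMP breakdown; potency is read from the fitted curve at half-maximal effect; nearly all actives have a fitted effect of over 60% in size; about a fifth of the inactives were tested at one dose only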
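Cells in DMEM/10% FBS with G418 were pretreated with compounds in DMSO plus […] (300 uM stock) for 30 min at 37C. cAMP was measured by HTRF (cAMP-d2 plus anti-cAMP antibody-K) after 30 min at room temperature.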
Active calls of the source: *; ? = inconclusive; . = no result given; & = joins results of further samples; [ ] = dose if it differs, or a comment.

SMILES	gsp antag	ClpP mod	TRPML1 inh	TRPML1 ag	Menin MLL FP FL	gsp agonist
CCc1nnc(NC=C2C(=O)OC(C)(C)OC2=O)s1	6%	-2.9%	-7	5.0	25	-15%
COc1cccc(NC(=O)Cc2ccc3ccccc3c2)c1	-5%	-2.9%	15	1.3	-0.2	-13%
CC1=C(C(=O)OCc2ccccc2)C(c2ccccc2)NC(=O)N1CCCCCC(=O)O (configuration not stated)	-15%	1.9%	-2	-0.3	1.7&-1.8	-2%
COc1ccc(CN(C)CC(=O)Nc2sc3c(c2C#N)CCC3)c(OC)c1	-20%	.	-2	-0.3	0.8	-13%[15.4 µM]
COc1ccc(CNC(=O)Cc2c(C)c3c(cc(C)c4c(C)coc43)oc2=O)cc1OC	.	?	17	-1.0	.	.
Cc1cccc(-n2nnc(-c3nc(-c4cccs4)no3)c2N)c1	.	-5.2%	-3	1.6	.	.
Cn1cc(CN2CCC(n3nccc3NC(=O)c3ccccc3Cl)CC2)cn1	8%	-0.3%	16	0.3	-4.2	?
O=S(=O)(Cc1ccc(Cl)cc1)N1CCN(Cc2ccccc2)CC1	-7%	2.0%	-5	1.2	12	-2%
COc1c(OC(C)=O)ccc(/C=N\NC(=O)c2ccc(Br)cc2)c1[N+](=O)[O-]	18%	.	10	0.3	-0.3	-25%
O=C(N[C@@H]1C[C@H]2CC[C@@H]1C2)c1ccco1	-3%	.	2	0.3	-3.1	-9%
O=C(COc1cccc(F)c1)Nc1ccc2[nH]c(=O)[nH]c2c1	2%	-10.0%	-12	-0.1	?	7%
CC(=O)c1c(C)[nH]c(C(=O)Nc2cc(S(=O)(=O)N(C)C)ccc2C)c1C	-30%	.	8	-0.3	2.3	14%[15.4 µM]
COCc1cc(C)nc(SCC(=O)Nc2ccc3c(c2)OCCO3)c1C#N	-6%	0.2%	3	0.8	.	0%
Cc1nn2c(COc3ccc(NC(=O)C(C)C)cc3)nnc2c2ccccc12	6%	-0.4%	23	-1.1	1.9	15%[15.4 µM]
CCN(CC)CCCNC(=O)c1nn(-c2ccc(C)cc2)c(=O)c2c1c1ccccc1n2C	.	3.8%	-7	0.3	.	.
CCN(Cc1ccccc1)S(=O)(=O)c1ccc2c(c1)CCCN2C(C)=O	.	-1.4%	-3	0.9	.	.
CC(=O)NC(Cc1ccc(O)cc1)C(=O)NN (configuration not stated)	7%	1.6%	-3	2.1	0.3	-30%
O=C(CN1C(=O)c2ccccc2C1=O)Nc1ccccc1F	-7%	0.4%	23	0.2	-6.5	-5%
CCn1ncc([C@@H]2C[C@H]3CN(Cc4ccccc4C)C(=O)[C@]34CCCN24)c1C	-2%	1.0%	-15	0.3	2.3	-94%[inhibitor]
COc1ccccc1CN1CCNC(=O)C1CC(=O)N(C)C1CCOCC1 (configuration not stated)	.	-2.6%	1	-0.1	.	-41%[inhibitor]
Cc1ccnn1CC(=O)N/N=C/c1cccs1	2%	-0.7%	-4	-0.4	.	7%[15.4 µM]
COc1ccccc1N(C)S(=O)(=O)c1ccc(C(=O)NCC2CCCCC2)cc1	-6%	0.4%	-9	0.3	.	-45%[inhibitor]
CCOc1ccccc1NC(=S)NC1CCCCC1	3%	-19%	23	0.8	1.7	-4%
O=c1c2cc([N+](=O)[O-])ccc2nc2n1CCC2	7%	-2.2%	2	-1.2	1.8	4%[15.4 µM]
CC(Oc1ccc(F)cc1)C(=O)Nc1nc(-c2ccccn2)cs1 (configuration not stated)	1%	.	4	0.3	.	36%[15.4 µM]
COc1ccc(C(CNC(=O)c2ccc(OCc3ccccc3)cc2)N2CCOCC2)cc1 (configuration not stated)	-21%	1.0%	2	3.2	.	22%
COC(=O)c1sccc1NC(=O)c1cc(OC)cc(OC)c1	-21%	32%	-1	0.5	-1.1	6%
O=C(O)CN(C1CCCCC1)S(=O)(=O)c1ccc(F)cc1	7%	.	-11	-1.2	-2.7	-2%[15.4 µM]
Cc1cc(C)c(NC(=O)CSc2nnc3[nH]c(=O)cc(C)n23)c(C)c1	.	-17%	15	0.3	.	.
COc1ccc(C(c2c(C)[nH]n(-c3ccccc3)c2=O)c2c(C)[nH]n(-c3ccccc3)c2=O)cc1OC	-19%	3.0%	31	-0.1	4.5	-41%
CC(=O)c1ccc(N2CCN(C(=O)c3cn(C)c(=O)c4c3c3ccccc3n4C)CC2)cc1	.	-17%	26	2.3	.	.
CC(=O)Cn1c(CN2CCN(C(=O)c3ccco3)CC2)nc2c1c(=O)n(C)c(=O)n2C	2%	-1.6%	24	-0.3	-4.6	37%
CC(=O)N[C@H]1C[C@@H]1c1ccccc1	3%	-1.9%	?	0.7	7.0	?
O=C(CCCCl)Nc1c2c(nn1-c1ccccc1)CSC2	-6%	0.6%	-8	-0.6	-2.0	0%
CCCN1C(=O)/C(=C/c2ccc(OCc3ccc(C(=O)O)cc3)c(OC)c2)NC1=S	?	.	-1	0.4	.	19%
COc1ccccc1NC(=O)CCCOc1cc(=O)n(C)c2ccccc12	.	1.1%	5	-0.3	.	.
Cc1ccc(S(=O)(=O)N2CCN(C(=O)c3cc(S(=O)(=O)N(C)C)ccc3N3CCCC3)CC2)cc1	-13%	.	17	-0.8	.	-5%[15.4 µM]
COc1cccc(NC(=O)COC(=O)c2nc3nccc(C)n3n2)c1	-1%	0.4%	32	3.0	-0.5	6%
CNC(=S)Nc1cccc(C(=O)OC)c1	16%	.	23	-0.2	1.3	-4%[15.4 µM]
CCOC(=O)c1cc2occc2n1CC(=O)NC1CCC(C)CC1 (configuration not stated)	-6%	-0.7%	-3	5.3	5.9	-14%
CCCc1nc2c(nnn2Cc2ccccc2Cl)c(=O)[nH]1	25%	.	4	-1.4	-3.7	2%[15.4 µM]
COc1ccc(C(=O)NN=C2CCCC2)cc1	7%	-1.7%	18	-0.7	-4.1	-12%
CC(C)Oc1ccc(C(=O)N/N=C/c2ccc(-c3ccc(S(=O)(=O)Nc4ncccn4)cc3)o2)cc1	-16%	14µM*	30	-0.2	9.6	9%
COc1ccc(F)c(CN2CCN(CCc3ccccc3)C(CCO)C2)c1 (configuration not stated)	-11%	-2.2%	-18	0.5	-3.4	-17%[15.4 µM]
Cc1cc(C)nc(SCc2nnc(SCC(=O)O)n2-c2ccccc2)n1	5%	.	10	0.5	0.0	-10%[15.4 µM]
CCNC(=O)C1CCCN(c2nnc(C)c3c(C)n(-c4ccc(C)cc4)nc23)C1 (configuration not stated)	.	-30%	13	1.2	.	.
O=C(CC1SC(=Nc2ccccc2)N(CCCO)C1=O)Nc1ccc(Cl)cc1 (configuration not stated)	-9%	39%	1	2.0	4.8	-35%[inhibitor]
CCN(c1ccccc1)S(=O)(=O)c1ccc(F)c(C(=O)Nc2ccc(C)cc2)c1	.	-2.8%	41	1.6	.	.
CC(=O)Nc1ccc(NC(=O)c2cccc(C(=O)OC(C)C)n2)cc1	1%	1.3%	1	-0.3	2.0	?
CN(C)c1ccc(S(=O)(=O)N(C)C)cc1NC(=O)Cc1cccc2ccccc12	-16%	.	13	0.4	-0.6	-4%[15.4 µM]

Fetched one by one from the entries so far:
SMILES	gsp antag	ClpP mod	TRPML1 inh	TRPML1 ag	Menin MLL FP FL	gsp agonist
COc1ccc(C(=O)NN=C2CCCC2)cc1	7%	-1.7%	18	-0.7	-4.1	-12%
O=C(CC1SC(=Nc2ccccc2)N(CCCO)C1=O)Nc1ccc(Cl)cc1 (configuration not stated)	-9%	39%	1	2.0	4.8	-35%[inhibitor]
Cc1cc(C)nc(SCc2nnc(SCC(=O)O)n2-c2ccccc2)n1	5%	.	10	0.5	0.0	-10%[15.4 µM]
CN(C)c1ccc(S(=O)(=O)N(C)C)cc1NC(=O)Cc1cccc2ccccc12	-16%	.	13	0.4	-0.6	-4%[15.4 µM]

Remaining list, next part
SMILES	gsp antag	ClpP mod	TRPML1 inh	TRPML1 ag	Menin MLL FP FL	gsp agonist
COc1ccc(C)cc1Nc1n[n+](C)c(-c2ccc(O)cc2O)s1	5%	0.1%	35	-0.1	-1.3	2%
CC(C)N(C(=O)C(F)(F)F)C(C(=O)NC1CCCCC1)c1ccncc1 (configuration not stated)	14%	0.4%	-12	-0.4	0.2	0%
CCc1cc2cccc(C)c2nc1SCC(=O)NC1CCCC1	-20%	.	-12	1.7	-2.4	14%
Cc1ccc(S(=O)(=O)NCC(=O)OCCOc2ccc(Br)cc2)cc1	-25%	1.1%	-8	3.7	.	3%
Cc1ccnc(NC(=O)CCC(=O)N(CC(=O)NC(C)(C)C)Cc2ccc3c(c2)OCO3)c1	-28%	0.4%	-4	-0.4	-5.7	16%[15.4 µM]
COc1ccc([C@H]2CC(=O)C=C(c3ccccc3OC)C2)cc1OC	-11%	-2.3%	0	1.2	.	.
O=c1c(Cl)c(O)c2cccc3c4ccccc4n1c23	-14%	14µM*	-10	0.0	1.6	2%
Cc1ccn2cc(-c3ccc(Br)cc3)nc2c1	3%	3.2%	-6	0.5	2.6	7%
Cc1ccc(S(=O)(=O)NN=C2CC3CC2C2CCCC32)cc1 (configuration not stated)	.	-5.0%	39	0.0	.	7%
CC(C)c1onc(C(=O)Nc2cccc(Cl)c2)c1[N+](=O)[O-]	-25%	1.1%	4	0.7	0.1	10%
CCN(CC)CCN1C(=O)C(=O)/C(=C(/O)c2ccc(S(=O)(=O)N3CCOCC3)cc2)C1c1ccc(C)cc1 (configuration not stated)	7%	.	5	0.2	.	22%
O=C(O)c1ccc(OCCn2ccnc2)cc1	-9%	-0.6%	3	0.0	-4.4&8.8	.
O=C(CSc1n[nH]c(=O)n1Cc1ccco1)c1ccc2c(c1)OCCO2	-8%	-1.3%	.	.	7.4	-43%[inhibitor]
CCCC(=O)OCc1cnc(C)c2oc(=O)c(C(=O)Nc3ccc(F)cc3C)cc12	.	-12%	11	0.1	.	.
COc1ccc(NC(=O)CN2C(=O)C(c3ccccc3)=NC23CCCCCC3)cc1OC	?	1.1%	3	2.0	0.9	6%
COC(=O)c1cc(NC(=O)CC(=O)c2cccc(N)c2)cc(C(=O)OC)c1	.	-7.0%	-3	0.1	.	-37%[inhibitor]
CCNC(=O)CCSc1nc(C)cc(C)n1	-4%	.	0	-0.2	-0.9	7%[15.4 µM]
O=C(Nc1nnc(SCc2ccc(F)cc2)s1)C1Cc2ccccc2CN1C(=O)c1ccco1 (configuration not stated)	-6%	-2.1%	7	-0.1	11	-14%[15.4 µM]
CCOc1ccc2nc(C)cc(Nc3ccccc3OCC)c2c1	.	-5.4%	9	0.8	.	.
CCN1C(=O)/C(=C/c2nc3ccccc3c(=O)n2-c2ccc(C)cc2)c2ccccc21	-2%	-0.7%	2	-0.7	0.1	-11%
